CtBP-E1A blk – inhibitors of CtBP/E1A interaction. activity change, % (concentration not given with the values). 340,000 tested, 0.49% active. AlphaScreen GST-E1A/His-CtBP binding, 1536-well; active compounds read low; control for the full effect not named in the record; in the data active means activity change below about -65%; inconclusive means about -30% to -65%; inactive means above about -30%
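GST-E1A and His-tagged CtBP (125 nM each as 5X stock) were preincubated with pin-transferred compound for 2 h at 37 °C in the dark, then glutathione donor and nickel acceptor beads were added for 1 h before AlphaScreen reading.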
Six1-Eya2 blk – Six1/Eya2 interaction inhibition. Q15475+O00167. AlphaScreen GST-Six1/His-Eya2 binding, biochemical; active compounds read low; control for the full effect not named in the record. activity change, % (no concentration beside the values). 360,000 tested, 0.56% active; in the data active = activity change below about -65%; inconclusive = about -30% to -65%; inactive = above about -30%
Target sequence (O00167 whole entry, looked up): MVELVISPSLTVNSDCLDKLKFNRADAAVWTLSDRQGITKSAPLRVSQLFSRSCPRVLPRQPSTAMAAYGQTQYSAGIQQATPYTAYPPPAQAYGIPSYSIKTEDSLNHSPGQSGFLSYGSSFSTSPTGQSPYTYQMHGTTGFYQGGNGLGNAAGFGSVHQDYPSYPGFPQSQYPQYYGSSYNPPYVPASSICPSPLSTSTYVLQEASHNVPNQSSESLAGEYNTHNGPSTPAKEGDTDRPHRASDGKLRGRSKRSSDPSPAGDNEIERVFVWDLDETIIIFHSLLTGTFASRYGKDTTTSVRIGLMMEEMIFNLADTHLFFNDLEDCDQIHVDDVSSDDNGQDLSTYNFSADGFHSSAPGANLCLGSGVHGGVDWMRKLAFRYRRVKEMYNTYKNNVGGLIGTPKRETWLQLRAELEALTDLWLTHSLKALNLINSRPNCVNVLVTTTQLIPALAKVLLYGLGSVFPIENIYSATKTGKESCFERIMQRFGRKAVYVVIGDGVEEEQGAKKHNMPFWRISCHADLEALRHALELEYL
Target sequence (Q15475 whole entry, looked up): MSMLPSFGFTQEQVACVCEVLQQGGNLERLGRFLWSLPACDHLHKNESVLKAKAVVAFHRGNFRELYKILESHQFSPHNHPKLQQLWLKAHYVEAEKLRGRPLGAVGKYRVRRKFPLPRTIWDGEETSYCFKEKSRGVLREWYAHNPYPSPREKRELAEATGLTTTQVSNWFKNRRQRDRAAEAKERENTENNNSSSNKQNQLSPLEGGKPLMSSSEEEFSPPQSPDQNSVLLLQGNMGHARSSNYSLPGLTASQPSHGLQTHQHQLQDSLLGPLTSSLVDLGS
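Homogeneous AlphaScreen proximity assay pairing GST-Six1 with His-tagged Eya2 (added as 5X mix: 250 nM and 500 nM) in 50 mM Tris pH 8.0, 300 mM NaCl, 1 mM TCEP. Glutathione donor and nickel acceptor beads; 1 h, 37 °C, dark.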
Active calls of the source: *; ? = inconclusive. On the % scale 0 is the no-effect control and ±100 the full control effect. These rows are one share of the data; rates above refer to the full screens.

Values in the order: CtBP-E1A blk	Six1-Eya2 blk
O=C(NC1CCCC1)C1C(c2ccc(C(F)(F)F)cc2)=Nc2ccccc2N1C(=O)c1ccco1 (stereo not given)
 : 6	-18
COC(=O)[C@@]1(Cc2ccc(OC)cc2)[C@H]2c3cc(C(=O)N4CCCC4)n(Cc4ccccn4)c3C[C@H]2CN1C(=O)c1ccccc1
 : -27	?
COC(=O)[C@]12CCCCC=C1N(Cc1ccc(Cl)cc1Cl)C(=O)[C@H](CC(=O)NCc1cccc(C(F)(F)F)c1)C2
 : 1	-9
COc1ccc(-c2oc3c(c2-c2cnc(OC)nc2)C(O)CC3)cc1 (stereo not given)
 : -8	4
CC(C)(C)C(=O)c1c(N)[nH]c(C(=O)c2ccccc2)c1-c1ccc(Br)cc1
 : -9	-2
C#CCNC(=O)c1cc(-c2ccccc2)sc1N
 : -15	-20
CC(C)(C)N1C(=O)c2ccccc2NC(=O)C1C(=O)NCCc1ccccc1 (stereo not given)
 : 10	11
COC(=O)C1=CN(c2cccc(OCc3ccccc3)c2)C(N)=C(C#N)C1c1ccc(-c2ccccc2)cc1 (stereo not given)
 : 0	0
COc1ccccc1Cc1c(-c2ccco2)nc2c3ccccc3ccn12
 : -9	?
COc1ccc(Cn2cc(CN(C)C3CN(Cc4cn(Cc5ccc(OC)cc5)nn4)S(=O)(=O)C3)nn2)cc1 (stereo not given)
 : 1	6
CCOC(=O)[C@]12CCC=C1N(CCC1=CCCCC1)C(=O)[C@H](CC(=O)NCc1cccc(C(F)(F)F)c1)C2
 : 0	4
COC(=O)[C@@]12C[C@@H](CC(=O)N3CCC(c4ccccc4)CC3)C(=O)N(CCc3ccc(OC)c(OC)c3)C1=CCC(C)(C)C2
 : -19	-19
CCCCNC(=O)c1nc(-c2ccc(C(F)(F)F)cc2)oc1-c1ccccc1
 : -6	-13
COc1ccc(-c2c(C(=O)c3ccccc3)[nH]c(N)c2C(=O)NCc2ccccc2)cc1OC
 : 0	-19
O=C1Nc2ccccc2-n2nnnc2C1N1CCc2ccccc2C1 (stereo not given)
 : -5	7
COC(=O)C[C@@H]1C=C[C@@H](NC(=O)Nc2cccc(F)c2)[C@@H](CO)O1
 : 2	-5
O=C(C(=O)N1CCN(c2ccccc2)CC1)c1ccc2c(c1)OCO2
 : 0	10
O=C(NCCN1CCC(n2c(=O)[nH]c3ccccc32)CC1)c1ccncc1
 : 3	1
COC(=O)[C@@]12C[C@@H](CC(=O)NCc3cccc(C(F)(F)F)c3)C(=O)N(CCc3ccc(OC)c(OC)c3)C1=CCC(C)(C)C2
 : -7	-13
O=C1c2c(-c3ccc(Br)cc3)noc2CCN1Cc1cn(Cc2cccnc2)nn1
 : -2	-6

Taken from the listing (14 entries):
Values in the order: CtBP-E1A blk	Six1-Eya2 blk
COc1ccc(-c2oc3c(c2-c2cnc(OC)nc2)C(O)CC3)cc1 (stereo not given)
 : -8	4
CC(C)(C)C(=O)c1c(N)[nH]c(C(=O)c2ccccc2)c1-c1ccc(Br)cc1
 : -9	-2
C#CCNC(=O)c1cc(-c2ccccc2)sc1N
 : -15	-20
CC(C)(C)N1C(=O)c2ccccc2NC(=O)C1C(=O)NCCc1ccccc1 (stereo not given)
 : 10	11
COC(=O)C1=CN(c2cccc(OCc3ccccc3)c2)C(N)=C(C#N)C1c1ccc(-c2ccccc2)cc1 (stereo not given)
 : 0	0
COc1ccccc1Cc1c(-c2ccco2)nc2c3ccccc3ccn12
 : -9	?
COc1ccc(Cn2cc(CN(C)C3CN(Cc4cn(Cc5ccc(OC)cc5)nn4)S(=O)(=O)C3)nn2)cc1 (stereo not given)
 : 1	6
CCOC(=O)[C@]12CCC=C1N(CCC1=CCCCC1)C(=O)[C@H](CC(=O)NCc1cccc(C(F)(F)F)c1)C2
 : 0	4
COC(=O)[C@@]12C[C@@H](CC(=O)N3CCC(c4ccccc4)CC3)C(=O)N(CCc3ccc(OC)c(OC)c3)C1=CCC(C)(C)C2
 : -19	-19
CCCCNC(=O)c1nc(-c2ccc(C(F)(F)F)cc2)oc1-c1ccccc1
 : -6	-13
COc1ccc(-c2c(C(=O)c3ccccc3)[nH]c(N)c2C(=O)NCc2ccccc2)cc1OC
 : 0	-19
O=C1Nc2ccccc2-n2nnnc2C1N1CCc2ccccc2C1 (stereo not given)
 : -5	7
COC(=O)C[C@@H]1C=C[C@@H](NC(=O)Nc2cccc(F)c2)[C@@H](CO)O1
 : 2	-5
O=C(C(=O)N1CCN(c2ccccc2)CC1)c1ccc2c(c1)OCO2
 : 0	10

Further records.
Values in the order: CtBP-E1A blk	Six1-Eya2 blk
Cc1cc(N2CCN(C(C(=O)NC3CCCC3)c3ccc(-c4ccccc4)cc3)CC2)c2ccccc2n1 (stereo not given)
 : -4	-7
COCCCn1cc(CN2CC(N3CCN(CCN(C)C)CC3)CS2(=O)=O)nn1 (stereo not given)
 : 0	-3
CCCCCCCCN1C(=O)[C@H](CC(=O)N2CCN(C(=O)OCC)CC2)C[C@@]2(C(=O)OC)CC(C)(C)CC=C12
 : -9	2
COc1ccc(NC(=O)C2c3ccccc3OCC(=O)N2CC(F)(F)F)cc1 (stereo not given)
 : -17	11
O=C(NC1CCCC1)C1c2ccccc2OCC(=O)N1CC(F)(F)F (stereo not given)
 : 0	-3
COc1ccc(C(C(=O)NC(C)(C)C)n2c(-c3ccc(C(F)(F)F)cc3)nc3ccccc32)cc1 (stereo not given)
 : 0	4
O=C(NC1CCCC1)C1C(c2ccc(C(F)(F)F)cc2)=Nc2ccccc2N1C(=O)c1cc2ccccc2[nH]1 (stereo not given)
 : -2	4
C#CCNC(=O)C[C@@H]1C[C@@]2(C(=O)OC)CC(C)(C)CC=C2N(CCCCCCCC)C1=O
 : -5	-4
CC(C)C[C@H]1CNC(=O)C(=O)N1C[C@@H]1CCCN1C[C@H](Cc1ccccc1)N1C[C@H](CC(C)C)N(CCc2ccccc2)C(=O)C1=O
 : 1	0
COC(=O)[C@@]1(Cc2ccc(OC)cc2)[C@H]2c3cc(C(=O)N4CCCC4)n(CCc4c[nH]c5ccccc45)c3C[C@H]2CN1C(=O)c1ccccc1
 : -21	-24
CCOC(=O)[C@]12CCC=C1N(Cc1ccc3c(c1)OCO3)C(=O)[C@H](CC(=O)NCc1cccc(C(F)(F)F)c1)C2
 : -1	-5
N#Cc1cccc(C(=O)C(=O)N2CCCN(Cc3ccc(F)cc3)CC2)c1
 : -15	5
CCCC(=O)Nc1ccc2c(c1)C(=O)N(C)C[C@@H](OC)[C@H](C)CN(Cc1ccc(-c3ccccn3)cc1)[C@@H](C)CO2
 : -4	-4
CCOC(=O)N1CCN(C(c2cc3ccccc3o2)c2nnnn2C(C)(C)C)CC1 (stereo not given)
 : -2	1
CCC(c1nnnn1-c1c(C)cccc1C)N1CCN(c2ccc(C(F)(F)F)cc2[N+](=O)[O-])CC1 (stereo not given)
 : 0	-25
CC(C)(C)NC(=O)C(C1CC1)n1c(=O)c(-c2ccco2)nc2ccccc21 (stereo not given)
 : 5	7
CC(C)(C)NC(=O)C(c1cccc2ccccc12)n1c(=O)c(-c2ccccc2)nc2ccccc21 (stereo not given)
 : -14	13
CCCCn1nnnc1C1(C)CCC(=O)N1Cc1ccc(OC)cc1 (stereo not given)
 : 9	0
CCC(c1nnnn1-c1c(C)cccc1C)N1CCCN(Cc2ccc(F)cc2)CC1 (stereo not given)
 : -1	-19
O=C(NC1CCCCC1)OC1CC2CC1[C@H]1CCCCN1C2=O (stereo not given in full)
 : 1	-2
CCCCCc1c(-c2ccc(OC)c(OC)c2)ncn1CCc1ccccc1OC
 : -12	?
CNC(=O)OC1CC2CC1[C@H]1CCCCN1C2=O (stereo not given in full)
 : 10	0
C#CCNC(=O)C[C@@H]1C[C@@]2(C(=O)OCC)CCCC=C2N(Cc2ccc3c(c2)OCO3)C1=O
 : 0	20
CC(C)C[C@@H]1CN(CCCC[C@H]2CNC(=O)C(=O)N2CCC2CCCCC2)C(=O)C(=O)N1Cc1ccccc1
 : 6	7
O=C(NCCN1CCC(n2c(=O)[nH]c3ccccc32)CC1)c1cccc2c1-c1ccccc1C2=O
 : -2	-4
CCCCC[C@@H](C)N1C[C@@H](COCc2ccccc2)Oc2cc(N3CCC[C@H]3CO)ccc2S1(=O)=O
 : -12	-14
C[C@H]1[C@@H](Cc2cc(Cl)cc(Cl)c2)N(c2ccccc2)c2ccccc2CN1Cc1ccccc1
 : -1	8
C[C@@H](c1ccccc1)N1C[C@@H](COCc2ccccc2)Oc2cc(N3CC[C@H](O)C3)ccc2S1(=O)=O
 : -15	-14
O=C1NC[C@H](CCCCN2C[C@H](Cc3ccccc3)N(CC3CCCCC3)C(=O)C2=O)N(CC2CCCCC2)C1=O
 : 0	25
O=S1(=O)CC(N2CCSCC2)CN1Cc1cn(Cc2cccc(Cl)c2)nn1 (stereo not given)
 : 6	1
COc1cccc(C(=O)N2CCC[C@H]2C(=O)N2CCC[C@H]2C(=O)NCc2ccc(F)cc2F)c1
 : 1	11
CCCCNC(=O)c1nc(C2CCN(S(=O)(=O)c3ccc(S(C)(=O)=O)cc3)CC2)oc1-c1ccccc1
 : 6	9
COc1ccccc1-c1ncn(Cc2cccc(-c3ccccc3)c2)c1-c1ccco1
 : 1	-28
Cc1cccc(C)c1N1CCN(C(c2ccnc3ccccc23)c2nnnn2-c2ccc3c(c2)OCCO3)CC1 (stereo not given)
 : -5	-16
O=S1(=O)N[C@@H](Cc2ccccc2)COc2cccc(N3CCC[C@H]3CO)c21
 : -2	-7
COC(=O)C1=CN(c2ccc(C)cc2)C(N)=C(C#N)C1c1ccc(OC)cc1 (stereo not given)
 : -23	3
C#CCNC(=O)C[C@@H]1C[C@@]2(C(=O)OCC)CCC=C2N(Cc2ccc3c(c2)OCO3)C1=O
 : 1	0
CCN(C)C1CN(Cc2cn(Cc3cccc(Cl)c3)nn2)S(=O)(=O)C1 (stereo not given)
 : 5	-3
COC(=O)[C@@]1(Cc2ccc(OC)cc2)[C@H]2c3cc(C(=O)N4CCCC4)n(Cc4ccc(S(C)(=O)=O)cc4)c3C[C@H]2CN1C(=O)c1ccccc1
 : -23	-7
Cc1cc2c(cc1C)-n1nnnc1C(N1CCCNCC1)C(=O)N2 (stereo not given)
 : 0	-4
CCS(=O)(=O)N1Cc2cc(C(=O)N(C)C)nc(-c3cccc(-c4ccc(F)cc4)c3)c2[C@H]1CCO
 : -1	-5
O=C1c2ccccc2C(c2nnnn2C2CCCCC2)N1CCc1ccc(O)cc1 (stereo not given)
 : 4	9
O=C(NCCc1ccc2c(c1)OCO2)Oc1ccccc1
 : 2	19
COc1ccc(C(C(=O)NCc2ccccc2)n2c(=O)c(-c3ccco3)nc3ccccc32)cc1 (stereo not given)
 : 5	-2
O=C1NC[C@@H](CCCCN2C[C@H](Cc3ccc(O)cc3)N(CCc3ccc(O)cc3)C(=O)C2=O)N(CCc2ccccc2)C1=O
 : 2	-4
COc1ccc(C(=O)NCCNc2nc3cc(C)cc(C)c3cc2C#N)nc1
 : 3	0
CCCCC(O)C1=C[N+](=O)CC=C1 (stereo not given)
 : -24	15
Cc1ccc2nc(C3CCCCC3)c(Cc3ccsc3)n2c1
 : -24	-2
CCOC1=C2CN(S(=O)(=O)c3ccc(C)cc3)C(c3cccc(Cl)c3)CC2N(S(=O)(=O)c2ccc(C)cc2)C(c2ccncc2)C1 (stereo not given)
 : 3	-3
O=C(NCc1ccccc1)C(c1ccccc1)n1c(=O)c(-c2ccco2)nc2ccccc21 (stereo not given)
 : 3	-20

(listing goes on)
Values in the order: CtBP-E1A blk	Six1-Eya2 blk
O=C1C=C(OCCF)CC(c2cccc([N+](=O)[O-])c2)O1 (stereo not given)
 : 4	-1
COCCN1C(=O)c2ccccc2C1c1nnnn1Cc1ccccc1 (stereo not given)
 : 3	0
CSCCC(C(=O)NC(C)(C)C)n1c(-c2ccccc2)nc2ccccc21 (stereo not given)
 : 7	7
CCCCNC(=O)C1C(c2ccc(OC)cc2)=Nc2ccccc2N1C(=O)c1cccnc1 (stereo not given)
 : -1	0
CCCNC(=O)c1cc2c(c(-c3cccc(-c4ccc(C#N)cc4)c3)n1)[C@@H](CCO)N(C(=O)CC)C2
 : -8	0
O=S(=O)(N[C@@H]1CC[C@H](CCNS(=O)(=O)c2ccccc2Cl)O[C@@H]1CO)c1ccccc1
 : -1	-3
COC(=O)[C@]12CCCCC=C1N(CCc1ccc(OC)c(OC)c1)C(=O)[C@H](CC(=O)NCC1CCCCC1)C2
 : -17	-9
O=C(NCc1ccccc1)C(C1CC1)n1c(CSCCOc2ccccc2)nc2ccccc21 (stereo not given)
 : 6	3
Cn1cc([C@]2(O)C(=O)N(c3ccccc3)c3ccccc32)c2ccccc21
 : -17	-9
CCCCCNC(=O)C(c1cc2ccccc2o1)n1c(=O)c(-c2ccco2)nc2ccccc21 (stereo not given)
 : 9	0
C#CCNC(=O)C[C@@H]1C[C@@]2(C(=O)OCC)CCCC=C2N(Cc2cccc3ccccc23)C1=O
 : 0	18

Source: PubChem BioAssay
